High-throughput results: PubChem, several laboratories
Beta apoptosis = blocks beta cell apoptosis; INS-1E cytokine-induced death, ATP luminescence, 48 h; percent of positive-control rescue, neutral wells zero; protection from apoptosis, % (concentration not given with the values); 0.8% of 300,000 active; AID 435005;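 active = all replicates at 75% or more, or half of them and the mean; inconclusive = half reach 75% but not the mean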;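 note: 0% = cytokine-treated negative control wells and 100% = positive control rescue; higher means more ATP so stronger rescue from cytokine killing; wells of about 40 µL received 100 nL stock; the first replicate is given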
RanGTP-Impb inh = inhibitors of RanGTP-importin-beta interaction, primary screen, biochemical, FRET, CFP-Ran, YFP-importin-beta, homogeneous; cell-free CFP-Ran/YFP-importin-beta FRET ratio; inhibition, % (test concentration not listed); 1.1% of 300,000 active;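 active = most replicates above 15%; inconclusive = exactly half above 15%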;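 note: 0% = DMSO wells and 100% = Ran loaded with GDP instead of GTP; wells of about 40 µL received 100 nL stock; the first replicate is given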
B2AR ag = human beta-2 adrenergic receptor agonism by FAP. Am2.2-beta2AR cells, FAP receptor internalization, flow cytometry; reference of the scale not given here. response, % (no concentration beside the values). AID 504454. P07550. 0.43% of 340,000 active;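 active = response above a set limit, near 3 SD of response in nonfluorescent compounds, cut at about 42% in these data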;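 note: stock transfer was 100 nL into about 11 µL; a reference agonist was the positive control; negative values mostly stem from fluorescent compounds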
Target sequence (P07550 whole entry, looked up): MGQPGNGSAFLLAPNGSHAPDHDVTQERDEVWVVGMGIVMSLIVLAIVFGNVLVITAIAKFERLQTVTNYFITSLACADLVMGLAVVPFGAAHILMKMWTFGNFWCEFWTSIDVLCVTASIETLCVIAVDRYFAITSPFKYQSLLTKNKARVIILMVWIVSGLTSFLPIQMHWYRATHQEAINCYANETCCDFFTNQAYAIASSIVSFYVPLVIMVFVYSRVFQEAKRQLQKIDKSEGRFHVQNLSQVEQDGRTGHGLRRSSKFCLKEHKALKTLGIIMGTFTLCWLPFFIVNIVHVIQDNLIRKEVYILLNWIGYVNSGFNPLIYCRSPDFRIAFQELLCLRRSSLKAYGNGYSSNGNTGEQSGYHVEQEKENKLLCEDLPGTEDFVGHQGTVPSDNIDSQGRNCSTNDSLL
UCH37 DUB inh = human UCH37 deubiquitinating enzyme inhibition; purified proteasome/UCH37, Ub-AMC cleavage fluorescence; inhibition, % (test concentration not listed); 0.33% of 330,000 active;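 active = mean of two replicates above 20%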;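 note: 0% = compound-free wells with enzyme and 100% = wells lacking proteasome; stock transfer was 100 nL into about 20 µL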
Target sequence (Q9Y5K5 whole entry, looked up): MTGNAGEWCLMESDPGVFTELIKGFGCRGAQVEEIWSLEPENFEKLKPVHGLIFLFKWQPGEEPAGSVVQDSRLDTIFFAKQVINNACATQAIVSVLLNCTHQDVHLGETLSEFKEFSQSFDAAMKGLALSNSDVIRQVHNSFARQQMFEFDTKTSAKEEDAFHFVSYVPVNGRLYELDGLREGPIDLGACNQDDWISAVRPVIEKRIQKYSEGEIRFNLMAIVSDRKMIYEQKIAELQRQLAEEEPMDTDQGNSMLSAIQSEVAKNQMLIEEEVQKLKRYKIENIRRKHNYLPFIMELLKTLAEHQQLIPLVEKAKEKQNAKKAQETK
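System: Proteasome-associated human UCH37 deubiquitinase; Input: 0.15 nM proteasome in added enzyme buffer; Also added: Ub-AMC substrate from 1 µM stock; Incubation: 30 min compound-proteasome preincubation then 25 min substrate reaction, room temperature; Detection: fluorescence, ex 355 nm, em 460 nm; Read-out: % inhibition of Ub-AMC cleavage fluorescence; Benchmarks: no-proteasome and no-compound wells.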
T cruzi repl = blocks replication of Trypanosoma cruzi. inhibition, % (no concentration beside the values). T. cruzi beta-gal in NIH3T3, luminescence, 90 h. AID 1885. 1.4% of 300,000 active;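 active = mean inhibition across valid replicates above about 55%, limit read from the data; inconclusive = mean below that limit but half or more replicates reach it; inactive = mean below it, under half of replicates reach it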;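 note: signal also drops with host cell toxicity which is not excluded here; 0% = plate median of DMSO wells and 100% = zero luminescence signal; higher percent means less beta-gal luminescence so fewer parasites; stock transfer was 50 nL into about 50 µL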
Calb FLC = affects C. albicans growth with fluconazole; C. albicans CaCi-2 (fluconazole-resistant clinical isolate) + fluconazole, Alamar Blue growth, 48 h; growth inhibition, % (test concentration not listed); 0.57% of 300,000 active;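 active = most replicates above 75%; inconclusive = exactly half above 75%; inactive = most below 75%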;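 note: all wells also contain fluconazole at 8 µg/ml as a sub-toxic cotreatment; 0% = median of DMSO wells and 100% = median of geldanamycin control wells; wells of about 8 µL received 7.5 nL stock; the first replicate is given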
Bfl-1 A1 inh = inhibitors of the anti-apoptotic protein A1, read as caspase activation. MEF A1-2A-BIM cells, Caspase-Glo 3/7 luminescence, 3 h; percent of clofoctol response, vehicle zero. 0.066% of 330,000 active. caspase activation, % (test concentration not listed). AID 2462;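 active = over half of replicate activation scores above 10%, or exactly half above 10 with the replicate mean above 10; inconclusive = replicate mean below 10 yet half the replicates above 10; inactive = over half of replicates below 10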;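 note: wells of about 30 µL received 50 nL stock; many hits fall short of the cut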
LANA-H2B inh = blocks KSHV LANA binding to histone H2A/H2B; 0.6% of 320,000 active; inhibition, % (test concentration not listed); cell-free LANA-H2A/H2B peptide, fluorescence polarization; in the data active = inhibition mostly above about 10%, no sharp cut-off; inactive = mostly below about 6.7%;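 note: stock transfer was 7.5 nL into about 10 µL; 0% = median of vehicle wells and 100% = median of positive control wells; one replicate is shown; the record names a cut of 25% in any replicate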
* marks the source's active call; other numbers are inactive results; ? = inconclusive; / = no result given.

SMILES | Beta apoptosis | RanGTP-Impb inh | B2AR ag | UCH37 DUB inh | T cruzi repl | Calb FLC | Bfl-1 A1 inh | LANA-H2B inh
COC(=O)C1=C(C)N(Cc2ccccc2)C(=O)N[C@H]1c1ccco1 | 1 | 7.6 | -5 | 3.6 | -6 | 1 | 1.4 | 1.8
Cc1noc(C)c1S(=O)(=O)N1CCCC(C(=O)NCC2CCCO2)C1 (stereo unspecified) | -1 | -1.3 | -1 | 4.7 | -10 | 12 | 0.1 | -1.5
CN(C)/C=N/c1nc2nccc(-c3cccc(Cl)c3)n2n1 | 5 | 1.5 | -10 | / | -13 | ? | 0.0 | 9.6
Cc1ccc2c(c1)[C@@H]1[C@H](CO2)[C@H](c2ccccc2)[C@@]2(C)C(=O)N[C@H](C)C(=O)N12 | 1 | / | 0 | 0.6 | / | / | 0.6 | 5.9
CCN(c1ccccc1)S(=O)(=O)c1ccc(C(=O)Nc2cc(C)ccn2)cc1 | -12 | / | 7 | 4.2 | / | / | 0.0 | -2.5
Cc1cc(S(=O)(=O)N2CCOCC2)ccc1OCC(=O)Nc1ccccc1C(F)(F)F | -2 | 4.8 | -1 | -1.1 | -1 | 2 | 0.3 | -0.1
COc1ccc(CN(C)C(=O)Cn2ccc(N)nc2=O)cc1OC | -1 | / | -3 | -2.5 | / | / | 0.2 | 2.9
CCOc1cc(C(=O)Nn2cnnc2)cc(OCC)c1OCC | 5 | -0.5 | -4 | 6.5 | -5 | -23 | 0.6 | 4.5
Cn1c(-c2ccccc2)c(/C=N/NC(=O)c2ccc(O)cc2)c2ccccc21 | -7 | -0.9 | 17 | / | -7 | -14 | 1.3 | 0.1
CCC(=O)NC1(Cc2ccc(O)cc2)CCCCC1 | -3 | -2.0 | -1 | 5.0 | -7 | 10 | 0.3 | -1.9
COc1cc2c(C(F)(F)F)c(-c3ccc(C#N)cc3)oc(=O)c2cc1OC | 6 | / | -5 | -2.8 | / | / | 0.6 | -2.1
COc1ccc(Cn2ccnc2)cc1[N+](=O)[O-] | -7 | / | 5 | -0.6 | -27 | / | -0.7 | 7.7
Cc1cccc(N2C(=N)SCC2=O)c1C | -12 | 3.2 | -2 | -0.1 | -15 | 4 | 0.0 | 2.0
CN1CCN(S(=O)(=O)c2ccccc2)C(c2ccccc2)C1 (stereo unspecified) | -2 | / | 2 | 4.5 | / | / | 0.1 | 18
CC(=O)c1nn(-c2cccc(Cl)c2)cc1C(=O)c1ccco1 | / | -1.7 | -11 | 2.1 | -5 | 1 | 0.3 | 5.7
O=C(OCC(O)CO)c1ccccc1Nc1ccnc2cc(Cl)ccc12 (stereo unspecified) | -12 | / | -4 | 1.4 | / | / | -0.4 | 2.3
O=C(CN1C(=O)CCC1=O)Nc1nc(-c2ccc(Oc3ccccc3)cc2)cs1 | -4 | -0.5 | -80 | -0.6 | 0 | -3 | 0.4 | 0.0
CCCCNc1nnc(SCC(=O)N2CCN(S(=O)(=O)c3ccc4ccccc4c3)CC2)s1 | 5 | -0.3 | -12 | -0.2 | 8 | 5 | 0.3 | 1.1
Cc1ccc(CSc2nc3c(c(=O)[nH]2)C(c2ccncc2)C2=C(CCCC2=O)N3)cc1 (stereo unspecified) | -5 | 4.5 | 4 | -133 | -16 | 8 | 0.4 | 3.3
Cc1c(C(=O)Nc2ccccc2-c2ccccc2)cccc1[N+](=O)[O-] | 7 | 3.1 | 8 | 4.8 | -15 | 9 | -0.8 | 1.3
COCC(C)NC(=O)COc1ccc(Cl)cc1Cl (stereo unspecified) | 0 | -3.2 | -2 | 1.5 | -4 | -1 | 1.1 | -0.7
COc1ccc(-c2csc(NCCc3nc4cc(Cl)c(Cl)cc4n3CCCO)n2)cc1 | 5 | -9.0 | -6 | 5.5 | 21 | -2 | 0.0 | -1.4
Cc1cc(=O)oc(C)c1C(=O)NCCC1=CCCCC1 | 5 | 3.0 | -6 | -0.2 | -1 | -3 | -0.3 | -0.6
Cc1cc(NC(=O)Cn2cnc3sc(C)c(C)c3c2=O)no1 | -5 | / | / | 2.0 | / | / | 1.9 | 4.6
COc1ccc(N2CC(C(=O)Nc3ccccc3C(=O)NCc3ccco3)CC2=O)cc1 (stereo unspecified) | -3 | 2.2 | 1 | 2.0 | 2 | 1 | 0.0 | 3.9
CCOC(=O)C1CCCN(C(=O)CCCn2c(=O)c3cccn3c3cccnc32)C1 (stereo unspecified) | -2 | -0.3 | -5 | -2.5 | 2 | -4 | 0.2 | -0.2
COc1ccc(CCC(=O)Nc2sc(C(=O)N(C)C)c(C)c2C#N)cc1 | / | 8.3 | 3 | 0.9 | 1 | 7 | / | /
O=C(NC1CCC(NC(=O)C2CCCO2)CC1)C1CCCO1 (stereo unspecified) | / | -2.3 | / | 5.0 | -7 | 16 | / | /
Cc1sc2nc(SCC(=O)NCc3ccco3)n(Cc3ccccc3)c(=O)c2c1C | 6 | -0.9 | -4 | -2.8 | 43 | 26 | -0.8 | 3.0
Cc1ccc(C(=O)Nc2ccc3ccccc3c2)cc1 | 3 | -1.8 | 0 | 1.0 | -14 | -2 | -8.9 | -4.1
O=S(=O)(/N=C(\Nc1ccc(F)cc1)C(F)(F)F)c1ccccc1 | / | 5.4 | 4 | / | -4 | 9 | 0.1 | 1.6
COc1cc2c(cc1OC)C(COc1ccc([N+](=O)[O-])cc1)N(C(C)=O)CC2 (stereo unspecified) | / | -0.5 | 1 | 7.2 | -4 | -14 | -0.2 | -5.1
Cc1cccc(C(=O)NCC(c2cccs2)N2CCOCC2)c1 (stereo unspecified) | -11 | -2.3 | 7 | 5.1 | ? | -4 | -0.5 | /
Cc1cc(=O)[nH]c(SCc2cccc(Br)c2)n1 | -1 | -0.5 | -2 | 5.5 | 5 | 2 | -1.3 | -2.4
CCC/C(O)=C1\C(=O)CC(c2ccccc2)CC1=NCCc1c(C)[nH]c2ccccc12 (stereo unspecified) | 40 | 0.8 | 16 | 4.1 | 38 | -5 | -0.2 | 6.3
COc1ccc2sc(-c3ccc(S(C)(=O)=O)cc3)c(C#CCO)c2c1 | 4 | / | 17 | -17 | / | / | 0.9 | -7.6
Cc1ccc(C2=NN(CC(=O)NCc3cccs3)C(=O)CC2)cc1 | 1 | -0.4 | -8 | / | 0 | -2 | 0.2 | -2.5
C=CCn1c(COc2ccc(F)cc2)nnc1SCC(=O)c1c[nH]c2c(CC)cccc12 | 7 | ? | -2 | 1.1 | 35 | -1 | 0.6 | 2.4
CCCC(=O)NC(NC1CCS(=O)(=O)C1)C(Cl)(Cl)Cl (stereo unspecified) | 3 | 0.7 | 2 | 1.0 | -18 | -3 | 1.5 | 4.9
Cc1ccc(S(=O)(=O)N(C)C)cc1NC(=O)COc1ccccc1C(=O)Nc1ccccc1 | 5 | 8.1 | 14 | 1.6 | 19 | 7 | -0.3 | -4.6
O=S(=O)(c1ccccc1)N1CCC(c2ccccc2)CC1 | -3 | 5.5 | -5 | -3.2 | 1 | -5 | 0.4 | 3.1
CCN(CC)C(=O)/C(=C/c1cn(S(=O)(=O)N(C)C)c2ccccc12)NC(=O)c1ccc(OC)cc1 | 4 | -8.3 | 0 | -6.9 | 9 | 1 | 0.9 | 2.7
COC(=O)[C@H]1C[C@@H]1[C@H](NC(=O)c1cnccn1)c1ccccc1 | -1 | 1.4 | -10 | 1.8 | 3 | -6 | -0.2 | 2.3
CC(OC(=O)CCc1nc2ccccc2c(=O)[nH]1)C(=O)Nc1ccc2c(c1)OCO2 (stereo unspecified) | 0 | 0.6 | 6 | 1.5 | -13 | -9 | -0.1 | 1.8
O=C(Nc1nnc(SCC(=O)N2CCCc3ccccc32)s1)c1ccccc1 | -2 | -0.6 | 5 | -7.7 | -1 | 4 | -1.4 | 3.1
Cc1ccccc1C(=O)NC(=S)NCC1CCCO1 (stereo unspecified) | -18 | 1.2 | 2 | 1.1 | 0 | 9 | 0.4 | -0.4
c1ccc(-n2nnnc2Oc2ccc(-c3nnco3)cc2)cc1 | -6 | -1.4 | 4 | 0.6 | -11 | -1 | 1.1 | -2.3
O=C(CN1CCCCCC1)Nc1ccc(Br)cn1 | / | -1.7 | 0 | 3.2 | -5 | 9 | -0.1 | 5.1
COc1ccccc1OCCC(=O)OCC(=O)Nc1ncc(Cl)cc1Cl | 1 | 4.6 | 1 | -8.1 | -10 | -1 | -0.1 | -1.1
Cc1noc(C)c1COc1ccc(C(=O)OCC(=O)Nc2ccc(S(N)(=O)=O)cc2)cc1 | 2 | / | -1 | 0.1 | / | / | 0.1 | 0.5
(continued)
SMILES | Beta apoptosis | RanGTP-Impb inh | B2AR ag | UCH37 DUB inh | T cruzi repl | Calb FLC | Bfl-1 A1 inh | LANA-H2B inh
COC(=O)c1ccc(COc2ccc(/C=C/C(=O)c3ccc(OC)c(CSCC(=O)O)c3)cc2OC)cc1 | -2 | 2.2 | 15 | 3.1 | 5 | 7 | 0.3 | -0.2
COc1cc2nc(Cl)nc(N3CCN(C)CC3)c2cc1OC | 1 | 2.5 | / | 7.7 | 13 | 0 | 0.2 | 1.5
O=S(=O)(NCCOCC(F)(F)F)c1ccc2oc3ccccc3c2c1 | 1 | 2.8 | -25 | 1.0 | -3 | -4 | -1.3 | 2.2
CCOc1ccc(CCNC(=O)COC(=O)/C=C/c2ccccc2)cc1OCC | -7 | -1.9 | -5 | 5.2 | -1 | -12 | 0.3 | -8.6
COCC(=O)N1CCN(c2cccc(C(F)(F)F)c2)CC1 | -7 | 1.1 | 1 | -0.6 | -10 | -9 | 0.2 | -3.4
O=C1N(CC(=O)N2CCc3ccccc32)CCN1Cc1ccccc1Cl | -3 | -0.6 | -10 | 2.9 | 16 | -8 | 0.8 | 1.4
Cc1ccc(NC(=O)CN2CCN(S(=O)(=O)c3cccs3)CC2)cc1S(=O)(=O)N(C)C | 4 | 6.7 | -1 | 3.7 | 4 | -35 | 0.9 | 0.7
Cc1ccc(NC(=O)C2CC(=O)N/C(=N/N=C/c3ccco3)S2)cc1C (stereo unspecified) | -4 | 5.8 | 2 | / | -10 | 17 | -0.6 | -1.9
CN(C(=O)c1ccccc1)c1ccc(OCC(=O)NC2CCS(=O)(=O)C2)cc1 (stereo unspecified) | 1 | -1.8 | -1 | 2.5 | -7 | -5 | 0.5 | -2.4
Cc1ccccc1OCC(=O)OCC(=O)c1ccc(-c2ccccc2)cc1 | 0 | -8.0 | -2 | 1.5 | -29 | 43 | -1.6 | 1.3
Cc1csc(OCC(=O)Nc2ccc(C)c(C)c2)n1 | -2 | 4.5 | 2 | 2.3 | -15 | 4 | 0.2 | /
O=[N+]([O-])c1ccc(/C=N/Nc2nc(N3CCCCCC3)nc(N3CCCCCC3)n2)o1 | 4 | -1.7 | 6 | / | 76* | 47 | 0.2 | -0.7
CCc1nn(C(C)C(=O)NC(C)CCc2ccco2)c(=O)c2cc3occc3n12 (stereo unspecified) | 0 | 2.7 | -9 | 1.0 | 20 | 37 | 0.3 | -5.2
Cc1cc(C)nc(SCC(=O)c2ccc(F)c(C)c2)n1 | -6 | 2.5 | 2 | 4.2 | -8 | -18 | 0.1 | -1.4
CCc1ccc(/C=N/NC(=O)C(=O)NCCCN2CCOCC2)cc1 | -2 | -3.6 | 0 | / | -17 | -1 | 1.3 | 3.9
